Screens from PubChem.
MT1-MMP act inh = MT1-MMP (human) activation inhibition | P50281 | HT1080 RFP-PRO-GFP cells, GFP/RFP ratio fluorescence, overnight; percent of plate control window, DMSO zero | GFP/RFP ratio change, % at 20 µM | 360,000 tested, 0.061% active | AID 651647;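 active = GFP/RFP ratio change of at least 30% with cell ATP level not reduced by more than half and red fluorescence within 50% of control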; note: strong numbers were not always called active
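Assay system: HT1080 RFP-PRO-GFP cells | Dosing: 20 µM single dose, 1% DMSO | Incubation: Cells overnight before dosing, compound overnight, 37 °C, 5% CO2 | Evaluation: GFP/RFP fluorescence ratio | Control set: DMSO-only wells and HT1080 RFP-L50D-GFP cell wells as references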
PABP FP inh = PABP-poly(A) binding inhibition; AID 2014; PABP-poly(A) RNA binding, fluorescence polarization; inhibition, % at 35 µM; P11940; 290,000 tested, 1% active;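 active = 50% or more with normal probe brightness, or confirmed in later tests; inconclusive = above 50% with abnormal brightness, or retests that disagree; inactive = below 50% or failed in later tests; about a fifth of its hits are not listed in these tables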;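 note: calls also rest on retests at 20 µM and on dose response follow-up; controls were probe without protein and protein plus probe with vehicle; some compounds called inactive have numbers as strong as hits; many hits fall short of the cut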
Target sequence (P11940 whole entry, looked up): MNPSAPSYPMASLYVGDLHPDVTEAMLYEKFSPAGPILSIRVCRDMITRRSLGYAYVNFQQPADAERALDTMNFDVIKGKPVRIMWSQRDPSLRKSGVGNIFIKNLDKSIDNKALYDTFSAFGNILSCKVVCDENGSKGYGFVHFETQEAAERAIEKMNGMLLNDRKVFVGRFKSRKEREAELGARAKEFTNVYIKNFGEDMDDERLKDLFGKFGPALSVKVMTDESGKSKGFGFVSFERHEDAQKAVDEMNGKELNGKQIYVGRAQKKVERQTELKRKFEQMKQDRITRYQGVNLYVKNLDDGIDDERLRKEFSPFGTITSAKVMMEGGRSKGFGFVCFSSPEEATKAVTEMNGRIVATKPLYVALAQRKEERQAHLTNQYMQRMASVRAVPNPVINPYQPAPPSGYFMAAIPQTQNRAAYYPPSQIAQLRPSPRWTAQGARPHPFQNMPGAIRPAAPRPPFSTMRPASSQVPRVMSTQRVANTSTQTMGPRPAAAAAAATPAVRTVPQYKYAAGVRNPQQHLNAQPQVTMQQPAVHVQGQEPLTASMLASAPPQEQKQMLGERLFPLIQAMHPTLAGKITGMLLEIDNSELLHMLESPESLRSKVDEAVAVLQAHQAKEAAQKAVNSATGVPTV
Yeast UUG start = modulators of start codon recognition fidelity in yeast. S. cerevisiae UUG-firefly luciferase reporter, luminescence/redox ratio. 350,000 tested, 0.13% active. activity score, % at 18.7 µM. AID 602363;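 active = replicate mean at a twofold rise or more, about +100% in these data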;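 note: firefly luciferase made from a UUG start codon reports start codon fidelity; reporter light over untreated wells divided by growth signal over untreated wells; some hits fall short of that in this replicate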
eIF4H inh = inhibitors of RNA binding by human eIF4H. Q15056. eIF4H fluorescence polarization binding assay. inhibition, % at 35 µM. 290,000 tested, 0.94% active;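 active = 50% or more with normal probe brightness, or confirmed in later tests; inconclusive = above 50% with abnormal brightness, or retests that disagree; inactive = below 50% or failed in later tests; about a fifth of its hits are not listed in these tables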;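 note: calls also rest on retests at 20 µM and on dose response follow-up; 0% = protein and probe with vehicle and 100% = probe without protein; strong numbers were not always called active; many hits fall short of the cut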
HIV Env fusion = inhibitors of HIV Env-mediated cell fusion. inhibition, % at 12.3 µM. 360,000 tested, 1.1% active. HeLa-JRFL Env/CEM21 cell fusion, luciferase;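 active = mean replicate inhibition score of at least 50 and every replicate individually at or above 50; inconclusive = only one of the two criteria met; inactive = mean below 50 and not all replicates reaching 50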;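 note: 0% = plate neutral controls and 100% = maraviroc near 300 nM; one replicate is shown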
Rce1 inhib = yeast Ras-converting enzyme inhibition; Q03530; yeast membranes, quenched prenylated peptide cleavage fluorescence; calls only; 290,000 tested, 0.27% active;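 active = fall in fluorescence gain of 50% or more versus controls, with final raw signal at or below 3038400; inconclusive = same 50% fall but final raw signal above 3038400; inactive = fall in fluorescence gain under 50%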;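 note: plate controls were neutral control wells for no effect and wells lacking membranes for full effect; tested at 10 µM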
CSC inhib = blocks cancer stem cells. cancer stem cell-like cells viability, luminescence. inhibition, % at 7.5 µM. 300,000 tested, 1.1% active;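 active = mean at 75% or more and at least half the replicates too; inconclusive = mean and replicates disagree; tested in HMLE shEcad cells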;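 note: 0% = median of negative and 100% = median of positive control wells; the first replicate is given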
eIF4H inh retest = second read-out of eIF4H inh, no call of its own (marks repeat the call); inhibition, %; compound at 20 µM; confirmation average;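 mean of two retest wells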
PABP FP inh retest = second read-out of PABP FP inh, no call of its own (marks repeat the call); inhibition, %; compound at 20 µM; confirmation repeats;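 mean of two retest wells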
MT1-MMP act inh RFP = second read-out of MT1-MMP act inh, no call of its own (marks repeat the call); RFP signal change, %; measured here: RFP expression control read;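 0 = vehicle wells; hits needed this value within 50% of zero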
* hit, by the source's call; i = inactive; ? = inconclusive; . = no result given; + = active, no number.

SMILES	MT1-MMP act inh	MT1-MMP act inh RFP	PABP FP inh	Yeast UUG start	eIF4H inh	HIV Env fusion	Rce1 inhib	CSC inhib	others
O=C(Nc1cn(-c2ccccc2)nc1-c1ccc(Cl)cc1)c1ccccc1	-7	-7	-8	-12	1	.	i	.
C=C(C)c1cccc(C(C)(C)NC(=O)NC2CCCC2)c1	-2	-4	2	-11	-12	-21	i	-4
CC(Oc1ccc(Cl)cc1Cl)c1ccn[nH]1 (configuration not stated)	4	5	7	.	-5	9	i	-7
CCCCNC(=O)COC(=O)CCC(=O)c1ccc(Cl)cc1	0	-2	9	-4	-1	-4	i	2
CCN(CC)CCCNC(=O)C1c2ccccc2C(=O)N(CCOC)C1c1ccc(F)cc1 (configuration not stated)	1	4	8	.	0	-12	i	-1
CCOC(=O)c1ccc(NC(=O)NC2CC3CCC(C2)N3Cc2nnnn2C(C)(C)C)cc1 (configuration not stated)	-8	-4	5	-1	-1	13	i	-13
Cn1c(=O)c([N+](=O)[O-])c(NCC2CCCO2)c2ccccc21 (configuration not stated)	-2	-1	10	.	4	-11	i	-4
Cc1ccc(C)c(N2CCN(CC3CC=CCC3)CC2)c1 (configuration not stated)	-2	1	1	16	3	.	i	31
O=C(CNC(=O)c1cccnc1)N/N=C/c1cccnc1	-7	-2	10	-10	7	-5	i	-10
CS(=O)(=O)c1ccccc1C(=O)Nc1ccc(S(=O)(=O)N2CCCC2)cc1	1	1	.	-3	.	-7	.	-21
NNC(=O)c1csc(-c2ccccc2)n1	3	0	-9	-1	-11	15	i	-10
O=C(Nc1ccccc1)C1=C[C@H](c2ccccc2)C[C@H](OCCCCO)O1	0	1	.	-18	.	-56	i	6
[O-][n+]1cccc2ncc3cscc3c21	-2	2	-3	-13	6	-6	i	-11
COC(=O)C1=C(O)/C(=C\c2cc(C)n(-c3ccccc3C)c2C)N=C1C	-34	9	54	7	47	.	i	-9	eIF4H inh retest=14;PABP FP inh retest=23
O=C(CCS(=O)(=O)c1ccc(Br)cc1)NCc1ccc(F)cc1	2	4	29	-24	87*	4	i	-17	eIF4H inh retest=84*;PABP FP inh retest=19
CC(OC(=O)/C=C/c1cccs1)C(=O)NC1CCCCC1C (configuration not stated)	5	-2	-1	-7	-9	26	i	-2
COCC(=O)Nc1nc2ccc(C)cc2s1	3	1	0	.	2	-114	i	-7
CCCCOc1ccc(C(=O)Nc2ccc(S(=O)(=O)Nc3cc(C)on3)cc2)cc1OC	0	-5	5	-2	1	.	i	-9
CCN(CC)CCCCOc1ccccc1OC	-5	-8	-12	7	4	.	i	-3
COc1ccc(CCCC(=O)NC(C)c2ccccc2)cc1 (configuration not stated)	2	1	2	-14	0	-13	i	.
S=C(NCC1CCCO1)NC1CCCC1 (configuration not stated)	3	-1	-9	.	-2	-4	i	3
Cc1nc(C)c(-c2ccc(SCC(=O)Nc3cccc(Cl)c3C)nn2)s1	1	-2	-1	-15	-6	-243	i	.
CCOc1cc(N2CCOCC2)c(OCC)cc1NC(=O)COC(=O)/C=C/c1ccc(OC(F)F)cc1	-3	-3	.	-16	.	.	i	-4
CCCCn1c(N)c(N(CCOC)C(=O)c2cc(S(=O)(=O)N3CCOCC3)ccc2F)c(=O)[nH]c1=O	0	4	.	.	.	-8	i	.
COc1ccc(C(=O)N2CCN(C(=O)Cc3ccccc3)CC2)cc1OC	-1	2	1	-7	-6	-8	i	-4

A section taken from the entries so far, as a working copy:
SMILES	MT1-MMP act inh	MT1-MMP act inh RFP	PABP FP inh	Yeast UUG start	eIF4H inh	HIV Env fusion	Rce1 inhib	CSC inhib	others
O=C(Nc1cn(-c2ccccc2)nc1-c1ccc(Cl)cc1)c1ccccc1	-7	-7	-8	-12	1	.	i	.
C=C(C)c1cccc(C(C)(C)NC(=O)NC2CCCC2)c1	-2	-4	2	-11	-12	-21	i	-4

More structures.
SMILES	MT1-MMP act inh	MT1-MMP act inh RFP	PABP FP inh	Yeast UUG start	eIF4H inh	HIV Env fusion	Rce1 inhib	CSC inhib	others
COc1ccc(-c2noc(COC(=O)c3ccco3)n2)cc1OC	-1	1	.	7	.	3	.	-1
CC(=O)Nc1ccc(NC(=O)COC(=O)Cn2cnc3ccccc32)cc1	-1	-1	.	-29	.	.	.	4
O=C(CCl)Nc1cccc(CP(=O)(c2ccccc2)c2ccccc2)c1	-2	5	-3	-9	-6	21	i	41
COc1cc(CNCc2ccc(SC)cc2)cc(OC)c1	-2	-4	3	.	8	18	i	-8
Cc1ccc(-c2cc(C(=O)OCC(=O)Nc3cc(C)on3)c3ccccc3n2)c(C)c1	-1	-1	-4	-2	-5	.	.	1
Cc1cc(/C=C2\SC(=S)NC2=O)c(C)n1-c1cccc(O)c1	-57	4	?	.	?	-170	i	1
COc1ccccc1NC(=O)Nc1nc(CC(=O)N2CCN(c3ccccc3)CC2)cs1	5	-1	.	.	.	1	i	11
COc1ccc(-c2cc(C(=O)NC(C(=O)O)C(C)C)c(C)o2)cc1OC (configuration not stated)	-2	0	15	9	-5	-89	i	-5
CCN(CC)CCN(Cc1cc2cc3c(cc2[nH]c1=O)OCO3)C(=S)NCc1ccco1	-1	-1	?	.	?	-26	+	-6
COc1cc2[nH]c(=O)n(CCCCCC(=O)N3CC=C(c4ccccc4)CC3)c(=O)c2cc1OC	5	-12	5	2	6	-4	i	17
CCCCCCn1c(=O)n2n(c1=O)[C@@H]1CN(S(=O)(=O)c3ccc(C)cc3)C[C@]1(O)[C@@H](OC(=O)NCc1ccco1)C2	-2	-7	.	-9	.	-14	.	.
O=C(CN1C(=O)c2ccccc2C1=O)Oc1ccc(F)cc1	.	.	3	.	0	.	i	13
Cc1c(NC(=O)CN2C(=O)c3cccc4cccc2c34)c(=O)n(-c2ccccc2)n1C	3	2	-6	-15	-10	-12	i	-2
CC1CN(C(=O)CCNC(=O)c2ccccc2Cl)CC(C)O1 (configuration not stated)	3	2	4	-14	-3	.	i	-2
O=C(O)CCC(=O)N1N=C(c2cccs2)CC1c1cccc([N+](=O)[O-])c1 (configuration not stated)	0	-1	6	1	2	7	i	-14
CC1(C)CC(=O)C(C(=O)c2ccccc2)C(=O)C1	-1	-1	2	-19	-1	7	i	-20
O=C1CN(c2nc(-c3cccnc3)nc3scc(-c4ccccc4)c23)CCN1	0	-6	-3	.	-3	4	i	-25
COC(=O)c1ccc(CSc2ccccc2NC(=S)Nc2cccc(SC)c2)o1	4	-1	.	-7	.	-33	.	.
COc1cccc(N2CCN(C(=S)Nc3ccc(C)cc3C)CC2)c1	0	-3	16	-19	-5	8	i	-15
O=C(O)Cn1c(SCc2ccccc2)nc2ccccc21	-2	1	6	-21	-7	.	i	3
O=C(NCc1cccnc1)c1cc(-c2cccs2)on1	7	5	1	-28	5	-100	i	6
CN(C(=S)NC(=O)C1CCCC1)c1ccccc1	2	9	.	-22	.	-3	.	.
CN(C)c1ccc(NC(=O)C[n+]2ccccc2)cc1	-4	0	-2	-13	1	9	i	-10
O=C(/C=C/c1ccco1)NC(=S)Nc1ccccc1Br	0	-3	18	-18	-8	-26	i	-1
CC(C)Cc1nnc(NC(=O)Cc2cccs2)s1	-3	11	55*	.	74*	15	i	-16	eIF4H inh retest=79*;PABP FP inh retest=61*
(more compounds)
SMILES	MT1-MMP act inh	MT1-MMP act inh RFP	PABP FP inh	Yeast UUG start	eIF4H inh	HIV Env fusion	Rce1 inhib	CSC inhib	others
Cc1ccc(C(O)P(=O)(OC(C)C)c2ccc(N(C)C)cc2)cc1 (configuration not stated)	2	-5	2	-7	2	27	i	-15
C#CCOCCOCCOCCNc1nc(N2CCN(C(=O)CCCCCCCCCCNC(=O)Cn3cc(CCCCCN)nn3)CC2)nc(N2CCN(C(=O)CCCCCCCCCCNC(=O)Cn3cc(CCCCCN)nn3)CC2)n1	6	2	.	6	.	.	.	13
COc1cc(OC)c(NC(=O)c2cc3ccccc3cc2O)cc1Cl	-2	-26	.	-7	.	13	.	.
CN(Cc1ccccc1)C(=O)c1ccc(Cc2cn(C)c3ccccc23)nc1	1	2	.	-2	.	-12	.	.
Cn1nc(C(F)(F)F)cc1C(=O)O	-1	-1	1	.	-9	0	i	-7
CCCCn1nc2cc(C(=O)NCc3cc(C(F)(F)F)cc(C(F)(F)F)c3)ccc2c1OCC	.	.	-2	-7	-1	.	i	36
COC(=O)CSc1nnc(C)n1-c1ccc(C)cc1	10	7	-11	5	-5	.	i	1
CN(C)c1ccc(N/C=C/C(=O)c2ccccc2)cc1	-6	3	9	-49	10	-481	i	40
CC(C)NC(=S)NNc1nc2ccccc2s1	3	9	-10	.	-5	-1	i	3
CCN(CC)c1ccc(NC(=O)COC(=O)CCC(=O)c2ccc(F)cc2)cc1	4	8	-5	-9	-12	-13	i	12
O=C1NC(=S)S/C1=C\c1coc2ccccc2c1=O	-2	5	-4	-34	3	7	i	-1
COc1ccc(NC(=O)CSc2nnc(-c3ccccc3Cl)n2Cc2ccco2)c(OC)c1	-1	0	-8	-17	-3	.	i	-24
COc1ccc(CONS(=O)(=O)c2ccc(NC(C)=O)cc2)cc1Cl	-4	-5	-8	-6	-9	23	i	.
COc1ccc2c(c1)S(=O)(=O)c1ccccc1N2	5	2	-1	.	-4	2	.	5
CCc1ccc(NC(=O)CC2C(=O)NCCN2C(=S)Nc2ccccc2)cc1 (configuration not stated)	5	4	3	.	-1	.	i	-1
CCCCOCCCNC(=O)c1ccc([N+](=O)[O-])c(C)c1	3	3	6	.	-1	1	i	18
O=C(O)c1ccccc1NS(=O)(=O)c1cccc2cccnc12	.	.	13	-25	-13	.	i	-4
CCC1(c2ccc(F)cc2)NC(=O)N(CC(=O)NCc2ccccc2Cl)C1=O (configuration not stated)	-3	2	9	3	-6	-11	i	-4
COc1cccc(CN=c2c([N+](=O)[O-])nn(-c3ccccc3C)n2O)c1	5	-11	0	.	2	-4	i	5

Filtered by structure: the compounds so far with a Cl atom
SMILES	MT1-MMP act inh	MT1-MMP act inh RFP	PABP FP inh	Yeast UUG start	eIF4H inh	HIV Env fusion	Rce1 inhib	CSC inhib	others
O=C(Nc1cn(-c2ccccc2)nc1-c1ccc(Cl)cc1)c1ccccc1	-7	-7	-8	-12	1	.	i	.
CC(Oc1ccc(Cl)cc1Cl)c1ccn[nH]1 (configuration not stated)	4	5	7	.	-5	9	i	-7
CCCCNC(=O)COC(=O)CCC(=O)c1ccc(Cl)cc1	0	-2	9	-4	-1	-4	i	2
Cc1nc(C)c(-c2ccc(SCC(=O)Nc3cccc(Cl)c3C)nn2)s1	1	-2	-1	-15	-6	-243	i	.
O=C(CCl)Nc1cccc(CP(=O)(c2ccccc2)c2ccccc2)c1	-2	5	-3	-9	-6	21	i	41
CC1CN(C(=O)CCNC(=O)c2ccccc2Cl)CC(C)O1 (configuration not stated)	3	2	4	-14	-3	.	i	-2
COc1cc(OC)c(NC(=O)c2cc3ccccc3cc2O)cc1Cl	-2	-26	.	-7	.	13	.	.
COc1ccc(NC(=O)CSc2nnc(-c3ccccc3Cl)n2Cc2ccco2)c(OC)c1	-1	0	-8	-17	-3	.	i	-24
COc1ccc(CONS(=O)(=O)c2ccc(NC(C)=O)cc2)cc1Cl	-4	-5	-8	-6	-9	23	i	.
CCC1(c2ccc(F)cc2)NC(=O)N(CC(=O)NCc2ccccc2Cl)C1=O (configuration not stated)	-3	2	9	3	-6	-11	i	-4
